A488 fluor: qHTS Assay for Spectroscopic Profiling in A488 Spectral Region; compound autofluorescence, A488 spectral region, dye equivalency; active compounds read high; max dye equivalency, M; 59,000 tested, 0.1% active; AID 591, 2007; active = above 10 nM dye equivalent; inconclusive = 1 to 10 nM; inactive = 1 nM or less; about half of its hits are not listed in these tables;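 further: highest value over a series up to 38 µM; compound alone in buffer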
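Autofluorescence read at ex 480/em 540 nm after 15 min RT in 100 mM Tris pH 8.0; compound signal normalized to A488 standard series on each plate, reported as dye-equivalent concentration at each test concentration.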
AID923: qHTS Assay for Allosteric/Competitive Inhibitors of Caspase-1: Spectroscopic Profiling in AFC Spectral Region. compound fluorescence, AFC spectral region (405/520 nm); almost no hit is shown here. Potency, µM (doses to about 57.5 µM), without a hit: top-dose fluorescence increase, actives largely listed as activators. 75,000 tested, 1.1% active. AID 923, 2007; active means well fitted activation curve with a large enough effect; inconclusive means small, poorly fitted or top-dose-only effect;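 further: potency means the concentration at half of the fitted maximal effect; 0% is about no effect; scaled to a free AFC standard on each plate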
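Compound autofluorescence profiled at 405 nm ex/520 nm em during kinetic caspase 1 run (50 nM enzyme, 5 uM Ac-WEHD-AFC, HEPES pH 7.5, 10 mM DTT). Titration up to 57 uM; baseline from regression intercept, normalized to AFC standard curve.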
Resorufin autofl: qHTS Assay for Spectroscopic Profiling in Resorufin Spectral Region. Compound fluorescence, resorufin region 547/598 nm, buffer; active compounds read high. max dye-equivalent concentration, M. 59,000 tested, 0.04% active. AID 588, 2007; active = above 10 nM dye equivalent; inconclusive = 1 to 10 nM; inactive = 1 nM or less; a few of its hits are not listed in these tables; further: highest value over a series up to 38 µM
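Intrinsic fluorescence profiled in the resorufin window (ex 547 nm, em 598 nm) after 15 min at room temperature in pH 8.0 Tris buffer (100 mM); responses normalized against a six-point resorufin standard series as dye-equivalent concentration.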
A647 fluor: qHTS Assay for Spectroscopic Profiling in A647 Spectral Region | 59,000 tested, under 10 active | AID 592, 2007 | Compound fluorescence, A647 channel (570/671 nm), Tris buffer | max dye-equivalent concentration, M; active means above 1 µM dye equivalent; inconclusive means 0.1 to 1 µM; inactive means 0.1 µM or less;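 further: values scaled relative to a standard on each plate; highest value over a series up to 38 µM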
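Spectral profiling of library compounds in pH 8.0 Tris: 15 min room-temperature incubation, single ex/em pair (570/671 nm), response normalized to Alexa 647 equivalents.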
TSHR ag: qHTS Assay for Agonists of the Thyroid Stimulating Hormone Receptor; Thyrotropin receptor (Homo sapiens), P16473; HEK293-CNG-TSHR cells (CNG channel as cAMP sensor), membrane potential dye, cAMP; Potency, µM (series often up to 57.1 µM), for the others: top-dose activation, hits mostly activators; 73,000 tested, 0.48% active; AID 926, 2007; active = well fitted activation curve of enough size with the parental cells flat; inconclusive = any curve in the parental cells; inactive = parental cells flat and receptor cells flat or falling; further: potency means the concentration at half of the fitted maximal effect; % of control where 0% means no effect; weak receptor curves with flat parental cells got no call and are not listed
Target sequence (P16473 whole entry, looked up): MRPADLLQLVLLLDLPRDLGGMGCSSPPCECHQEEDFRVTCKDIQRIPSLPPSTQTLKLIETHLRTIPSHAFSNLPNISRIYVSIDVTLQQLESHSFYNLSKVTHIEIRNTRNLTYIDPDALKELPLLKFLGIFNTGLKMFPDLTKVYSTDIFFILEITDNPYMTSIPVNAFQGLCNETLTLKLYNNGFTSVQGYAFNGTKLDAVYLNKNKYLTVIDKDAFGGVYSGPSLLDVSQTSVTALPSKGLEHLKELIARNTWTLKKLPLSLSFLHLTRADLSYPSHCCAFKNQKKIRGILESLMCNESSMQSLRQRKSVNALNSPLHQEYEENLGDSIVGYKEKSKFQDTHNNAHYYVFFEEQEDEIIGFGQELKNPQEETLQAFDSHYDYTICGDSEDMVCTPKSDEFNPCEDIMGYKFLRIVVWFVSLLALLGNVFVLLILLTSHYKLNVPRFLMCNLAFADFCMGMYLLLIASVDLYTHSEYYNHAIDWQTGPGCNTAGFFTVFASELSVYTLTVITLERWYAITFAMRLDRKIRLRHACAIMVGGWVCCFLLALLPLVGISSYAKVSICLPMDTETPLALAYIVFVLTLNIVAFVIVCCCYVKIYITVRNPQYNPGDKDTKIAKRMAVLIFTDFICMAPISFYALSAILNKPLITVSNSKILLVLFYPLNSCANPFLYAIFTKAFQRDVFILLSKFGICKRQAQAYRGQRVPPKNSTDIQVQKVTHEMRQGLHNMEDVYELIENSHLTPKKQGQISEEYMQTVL
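cAMP rise detected as CNG-channel membrane depolarization by fluorescent dye (emission 590 nm), 30 min after compound, following 60 min dye loading containing 100 uM RO 20-1724 at room temperature. Cells: TSHR/CNG HEK 293, with parental CNG HEK 293 as control.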
Starred values were filed as active, the others as inactive; i = inactive; ? = inconclusive; · = no result given; & = joins results of further samples; [ ] = dose if it differs, or a comment. Some of the compounds tested, so the mix of outcomes need not match the whole.

SMILES	A488 fluor	AID923	Resorufin autofl	A647 fluor	TSHR ag
O=C(Nc1ccccc1N1CCN(c2ccccc2)CC1)C1CCCCC1	i	-1.8%	i	3.7e-09	?
CC1CN(C(c2cccs2)c2sc3ncnn3c2O)CC(C)O1 (configuration not stated)	·	1.7%	·	·	?
Cc1ccc(C)c(N2CCN(C(=O)Cn3cccc3)CC2)c1	i	0.1%	i	2.2e-08	6%[11.4 µM]
O=C(Nc1cc(C(=O)N2CCCC2)ccc1N1CCCC1)c1ccccc1	i	0.6%	i	1e-09	-3%
CCC(C)Nc1nc2c(c(=O)n(C)c(=O)n2C)n1Cc1ccc(F)cc1 (configuration not stated)	i	1.0%	i	1.7e-09	-2%
CCCN1CCC(N(C)CCc2ccc(OC)c(OC)c2)CC1	·	1.4%	·	·	10%
C[C@@H]1O[C@H](O[C@@H]2\C=C/C=C\C=C/C=C\C[C@H](C)OC(=O)/C=C\[C@H]3O[C@@H]3C[C@H](O)C[C@]3(O)C[C@@H](O)[C@@H](C(=O)O)[C@H](C2)O3)[C@@H](O)[C@H](N)[C@@H]1O (stereo in doubt)	i	0.5%[25.7 µM]	i	3.1e-09	8%[25.6 µM]
COc1cc(C(=O)Nc2ccc(S(=O)(=O)N3CCCCC3C)cc2)cc(OC)c1OC (configuration not stated)	·	-1.5%	·	·	3%
Cc1nnc(SCC(=O)Nc2ccc3c(c2)COC3=O)n1-c1ccccc1	·	-1.3%	·	·	-4%
Cc1c(NC(=O)C2CCCN2C(=O)c2cccs2)c(=O)n(-c2ccccc2)n1C (configuration not stated)	i	-2.3%	i	8.4e-09	1%
CCNc1nc(C)nc2c1oc1ccccc12	i	-0.2%	i	2.2e-08	23%
O=C(Oc1c(Cl)cc(Cl)c2cccnc12)N1CCOCC1	·	3.9%	·	·	1%
O=S(=O)(O)c1ccccc1	·	1.6%	·	·	?
Cc1cc(NC(=O)C2=C(O)c3ccccc3S(=O)(=O)N2C)no1	i	-0.3%	i	1e-09&2.3e-09	-15%[25.6 µM]
CN1CCN(S(=O)(=O)c2ccc(SCCOc3ccccc3)nc2)CC1	i	-1.4%	i	3.5e-08	6%
COCCNC(=O)CSc1nc2ccc(N3CCOCC3)cc2c(=O)n1CCc1ccccc1	i	15%	i	1.9e-08	1%
CCOC(=O)c1cn(CC)c2ccc(S(=O)(=O)N3CCC(C)CC3)cc2c1=O	i	-0.4%	i	1e-09	5%
CCOCCCNC(=O)CN1C(=O)C(CC)Oc2ccccc21 (configuration not stated)	i	-0.5%	i	1.4e-09	-1%
CC(=O)N1CCN=C1SCc1ccccc1	·	3.5%	·	·	-1%
c1ccc2sc(SN3CCOCC3)nc2c1	i	1.4%	i	5.7e-09	2%
Cc1nn(Cc2ccccc2)c(C)c1NC(=O)CSc1nc2sc3c(c2c(=O)n1C)CCC3	i	0.1%	i	3.4e-09	27%
Clc1ccc(-c2nnn(Cc3nc4ccccc4s3)n2)cc1	i	3.1%	i	1e-09	?
Cn1cccc1C(=O)N1CCC2(CCCN(Cc3nccs3)C2)CC1	i	6.8%	i	1.4e-09	-1%
Cc1cc(C)cc(N(CC(=O)O)S(=O)(=O)c2cccnc2)c1	·	0.5%	·	·	4%
CCOC(=O)C1CCCN(C(=O)c2cc(Cl)ccc2Cl)C1 (configuration not stated)	i	-0.3%	i	7.1e-09	?
CCN(C(=O)COC(=O)c1cnc(C)cn1)C1CCCCC1	i	-1.1%	i	2.6e-08	-7%
COC(=O)[C@H](CCSC)NC(=O)Nc1ccc(C)cc1	i	-0.7%	i	5.9e-09	5%
CC1CCCC(NC(=O)c2n[nH]c(=O)c3ccccc23)C1C (configuration not stated)	i	-0.3%	i	1e-09	25%
COc1ccc(C)cc1NC(=O)Cn1cnc2sc(C)c(S(=O)(=O)N3CCOCC3)c2c1=O	i	-1.1%	i	3.6e-08	-3%[11.4 µM]
CCN(CC)S(=O)(=O)c1cc(C(=O)Nc2ccccn2)ccc1C	i	-0.9%	i	1e-09	?
COc1ccccc1N1CCN(CCCCNC(=O)c2ccc3ccccc3c2)CC1	i	-5.7%[25.7 µM]	i	3.1e-08&2.9e-09	-1%[25.6 µM]
COc1ccc(Cc2nc(-c3ccc(Cl)cc3)no2)cc1	i	2.4%	i	3.5e-08	?
CCOC(=O)CCNC(=O)Nc1ccc2nc(C)n(Cc3ccc(Cl)cc3)c(=O)c2c1	i	1.6%	i	1e-09	2%
COc1cc(C(=O)O)cc(Br)c1OC1CCCC1	i	0.5%	i	4.3e-08	20%
O=C(NCc1ccc2c(c1)OCO2)c1cccc(S(=O)(=O)N2CCCCC2)c1	i	0.1%	i	1e-09	19%
CN(C(=O)c1ccc2c(c1)OCO2)C1(C(=O)NC2CCCCC2)CCCCC1	i	1.9%	i	1.4e-08	?
COc1cc(C(=O)N2CCN(c3cccc(C)c3C)CC2)cc(OC)c1OC	·	1.8%	·	·	8%
COCC(C)NC(=O)CCS(=O)(=O)c1nc(-c2ccc(OC)cc2)cc(C(F)(F)F)n1 (configuration not stated)	i	0.0%	i	1e-09	11%
Cc1ccccc1C(=O)Nc1ccc(Br)c(C)n1	i	0.4%	i	6.1e-09	9%
Cc1cc2c(N=O)c(NO)ccc2[nH]1	i	2.3%	i	4.3e-08	-7%
Cc1nn(C(C)C(=O)N2CCc3ccccc3C2)c(=O)c2cc3occc3n12 (configuration not stated)	i	0.5%	i	1.1e-09	1%
NC(=O)c1cccc(S(=O)(=O)N2CCCCC2)c1	·	2.0%	·	·	6%
CC(C)CCNC(=O)CN(C(=O)CCC(=O)Nc1ccccn1)c1ccc2c(c1)OCO2	i	-2.7%	i	1e-09	?
CCc1ccc(CNCc2cccnc2)cc1	i	-0.8%	i	5.4e-08	5%
O=C(COC(=O)Cc1ccc(S(=O)(=O)N2CCCCC2)s1)Nc1ccc2c(c1)OCO2	i	-1.6%	i	4e-09	3%
CCOc1ccccc1N(C(=O)Cn1nnnc1-c1ccc(C)o1)C(CC)C(=O)NC(C)(C)C (configuration not stated)	i	-2.2%	i	1.9e-08	12%
Cc1nnc2n(-c3ccccc3)c(=O)c3c4c(sc3n12)CCCC4	i	·	i	1e-09	·
CCCCNC(=O)N(C)c1nncnc1C(=O)NC	i	·	i	3.2e-08	·
Fc1ccc(CSc2ncnc3c2oc2ccccc23)cc1	i	-2.4%	i	7.8e-09	?
CCCCOc1ccccc1C1C(C(N)=O)=C(C)Nc2nnnn21 (configuration not stated)	i	-0.1%	i	1.8e-08	9%
CCCCC(=O)NC1(C(F)(F)F)C(=O)Nc2c1c(=O)n(C)c(=O)n2C (configuration not stated)	i	-3.4%	i	9.5e-09	-3%
Cc1ccnc(NS(=O)(=O)c2ccc(N=CC3=C(O)CC(C)(C)CC3=O)cc2)n1	i	2.6%	i	8e-09	-3%
O=C1CC(c2ccc(S(=O)(=O)NC3CC3)cc2)CN1 (configuration not stated)	·	-5.0%	·	·	-3%
CN(C)C(=O)CSc1nnc([C@H](Cc2c[nH]c3ccccc23)NC(=O)OC(C)(C)C)o1	i	0.1%	i	1e-09	?
COc1ccc(-c2nnc(SCC(=O)Nc3cc(C)on3)n2C)cc1OC	i	0.5%	i	1e-09	2%[11.4 µM]
COc1ccc(C)cc1NC(=O)c1nnn(Cc2cc(C)ccc2C)c1N	·	0.6%	·	·	-2%
Nc1ccc2oc(-c3cc(Br)ccc3Cl)nc2c1	i	·	i	4.3e-09	·
O=C(c1nc2ncccn2n1)N1CCN(c2ccccc2)CC1	i	-0.4%	i	1e-09	-1%
CC(=O)Nc1ccc(Oc2ccc3nc(C)[nH]c3c2)cc1	i	·	i	3.7e-09	·
CC1CCCCC1NC(=O)Cn1nc(-c2ccccc2)ccc1=O (configuration not stated)	i	-1.5%	i	1e-09	6%

Another view of part of the listing above.
| SMILES | A488 fluor | AID923 | Resorufin autofl | A647 fluor | TSHR ag |
| --- | --- | --- | --- | --- | --- |
| COc1ccc(-c2nnc(SCC(=O)Nc3cc(C)on3)n2C)cc1OC | i | 0.5% | i | 1e-09 | 2%[11.4 µM] |
| Fc1ccc(CSc2ncnc3c2oc2ccccc23)cc1 | i | -2.4% | i | 7.8e-09 | ? |
| Cc1c(NC(=O)C2CCCN2C(=O)c2cccs2)c(=O)n(-c2ccccc2)n1C (configuration not stated) | i | -2.3% | i | 8.4e-09 | 1% |
| O=C(c1nc2ncccn2n1)N1CCN(c2ccccc2)CC1 | i | -0.4% | i | 1e-09 | -1% |
| CCCCNC(=O)N(C)c1nncnc1C(=O)NC | i | · | i | 3.2e-08 | · |
| Clc1ccc(-c2nnn(Cc3nc4ccccc4s3)n2)cc1 | i | 3.1% | i | 1e-09 | ? |

Continuation.
SMILES	A488 fluor	AID923	Resorufin autofl	A647 fluor	TSHR ag
Cn1c2ccc(CC(=O)O)cc2c2cc(CC(=O)O)ccc21	·	4.3%	·	·	-3%
Cc1ccccc1OCCN1C(=O)c2ccccc2C1=O	·	-2.5%	·	·	?
CCOC(=O)c1cnc(-n2nc(C)cc2C)nc1Nc1ccc2c(c1)OCO2	i	0.0%	i	5.7e-08	13%
Fc1ccc(-c2cc(C(F)(F)F)nc(NCC3CCCO3)n2)cc1 (configuration not stated)	i	-1.4%	i	1.1e-08	?
CC(=O)CC(=O)Nc1ccccc1NC(C)=O	·	-0.2%	·	·	-5%
NS(=O)(=O)c1ccc(CCNc2cc(=O)n(Cc3ccc(F)cc3)c(=O)[nH]2)cc1	i	-0.2%	i	2.2e-08	-6%
Cc1nn2c3ccccc3nc2n(C)c1=O	i	2.8%	i	2.1e-09	-9%
O=C(O)CN(CCN(CC(=O)O)CC(=O)O)CC(=O)O.[Cu]	i	1.2%[11.5 µM]	i	2.8e-09	-2%[11.4 µM]
CC(C)N1CCC2(CC1)N=C(c1ccc3c(c1)OCO3)CC(c1cc(Cl)ccc1O)N2 (configuration not stated)	i	1.1%	i	7.7e-09	-19%
Cc1ccc(S(=O)(=O)/C=C\C#N)cc1	·	0.2%	·	·	11%
CCCN1C[C@H](CSC)C[C@H]2c3cccc4[nH]cc(c34)C[C@@H]21	i	0.0%[25.7 µM]	i	2.6e-09&7.3e-09	?
O=C(Cn1c(NCCCO)nc2ccccc21)c1cccc(Br)c1	i	-0.9%	i	2.4e-09	17%
COc1ccccc1C(c1nnnn1CCc1ccccc1)N1CCN(c2ccccc2)CC1 (configuration not stated)	i	-1.0%	i	4.2e-08	?
COc1cccc(C(=O)CSc2nnc(CNS(C)(=O)=O)n2-c2ccc(C)cc2)c1	i	1.4%	i	2.3e-08	1%
O=C(c1ccco1)N1CCN(C(=O)c2cnn3c2NC(c2cccs2)CC3C(F)(F)F)CC1 (configuration not stated)	i	0.7%	i	1.5e-08	-2%
CCOC(=O)N1CCC(NC(=O)CSc2cc(=O)n(CC)c3ccccc23)CC1	i	-0.4%	i	1e-09	-12%
COc1cccc(C2/C(=C(/O)c3ccncc3)C(=O)C(=O)N2CCCN2CCOCC2)c1OC (configuration not stated)	i	-0.4%	i	1e-09	1%
O=C1c2ccccc2C(=O)N1SC1CCCCC1	i	0.8%	i	1e-08	-12%
O=C(NCCCNC(=O)c1ccco1)c1ccco1	·	0.2%	·	·	2%
CCN1CCN(Cc2nc3c(c(=O)n(C)c(=O)n3C)n2CCc2ccccc2)CC1	·	1.1%	·	·	?
O=C(NCCN1CCOCC1)c1cc(-c2ccc(Br)cc2)on1	i	-0.7%	i	4.1e-08	6%
O=C(CN1CCN(Cc2ccccc2)CC1)N1CCCc2c1c(=O)oc1ccc(O)cc21	i	0.4%	i	7.3e-09	-21%
Nc1ncnc2c1ncn2[C@@H]1O[C@H](COP(=O)(O)O)[C@@H](O)[C@@H]1O	i	0.3%[25.7 µM]	i	1e-09	-5%[25.6 µM]
